H5N1 antiviral: MDCK cell protection from H5N1 avian flu. cytopathic effect, luminescence, 72 h; hits give high values; no value below 0 was filed and about half of the inactive calls have no number; reference of the scale not given here. inhibition, % at 50 µM. 96,000 compounds, 0.07% hits. AID 740, 2007; in the data active means inhibition above about 25%
* marks the source's active call; other numbers are inactive results; i = inactive. This is a subset. The share of hits here may be higher or lower than overall.

SMILES	H5N1 antiviral
Cc1ccc(NC(=S)NNC(=O)c2ccccc2OC(F)F)cc1	0.1
Fc1ccccc1N1CCN(Cc2nc(-c3ccccc3)no2)CC1	i
CCOC(=O)c1ccc(N2CSC3=C(C#N)C(c4cccs4)CC(=O)N3C2)cc1 (stereo unspecified)	i
COC(=O)C1=C(C)N(C)C(C)=C(C(=O)OC)C1c1ccncc1	1.0
O=c1cc(O)nc(SCc2ccccc2Cl)[nH]1	i
CC(C)c1cc(C(=O)Nc2cccc(Cl)c2)no1	i
CC(=O)c1ccc(S(=O)(=O)N(Cc2cc3cc4c(cc3[nH]c2=O)OCCO4)CC2CCCO2)cc1 (stereo unspecified)	0.9
Cc1ccc2nc(-c3cccc(S(=O)(=O)N(C)C)c3)cn2c1	i
CCC(C)NC(=O)c1cc(Cl)ccc1OC (stereo unspecified)	0.2
Cc1oc(/N=C/c2ccccc2O)c(C#N)c1C	0.3
CCn1c(=O)cc(SCC(=O)N2CCC(C)CC2)c2ccccc21	0.8
CCn1c(COc2ccc(Cl)cc2)nnc1SCc1ccc(C#N)cc1	i
CCn1c(=O)cc(NC2=NCC(C)CN2c2cccc(Cl)c2)n(C)c1=O (stereo unspecified)	0.8
Cc1c(NC(=O)C2CCCCN2S(=O)(=O)c2ccc(Cl)cc2)c(=O)n(-c2ccccc2)n1C (stereo unspecified)	0.4
CCC(C)(C)NC(=O)C(c1ccc(F)cc1)N(Cc1ccco1)C(=O)CCC(=O)Nc1ccccn1 (stereo unspecified)	i
Cn1c[n+](C)cc1/C=N/O	i
O=C(Nc1cccnc1)c1c(O)c2cccc3c2n(c1=O)CC3	0.8
O=C(Nc1cccc2nsnc12)c1ccc2c(c1)OCO2	i
COC(=O)c1ccc(C(=O)OC)c(NC(=O)CN2CCN(c3ccc(OC)cc3)CC2)c1	i
O=C(c1cc2c(=O)n3ccccc3nc2s1)N1CCOCC1	4.0
CC(C)CC(=O)Nc1ccc(S(=O)(=O)NCc2ccco2)cc1	i
Cc1ccc(NC(=O)CSc2nc3ccccc3c3nc(CCc4c(C)n[nH]c4C)nn23)cc1F	i
O=C(Cc1ccccc1)NCCc1cccc(Cl)c1	1.6
Oc1c(N=Nc2ccccn2)ccc2ccccc12	i
COc1ccc(S(=O)(=O)N2CCC(C(=O)N3CCCCC3)CC2)cc1Cl	i

An excerpt of these results, in markdown:
| canonical_smiles | H5N1 antiviral |
| --- | --- |
| Cc1ccc(NC(=O)CSc2nc3ccccc3c3nc(CCc4c(C)n[nH]c4C)nn23)cc1F | i |
| CCn1c(=O)cc(SCC(=O)N2CCC(C)CC2)c2ccccc21 | 0.8 |

Among those listed so far, 11 have a carbonyl joined to an NH by a bond outside any ring.
SMILES	H5N1 antiviral
Cc1ccc(NC(=S)NNC(=O)c2ccccc2OC(F)F)cc1	0.1
CC(C)c1cc(C(=O)Nc2cccc(Cl)c2)no1	i
CCC(C)NC(=O)c1cc(Cl)ccc1OC (stereo unspecified)	0.2
Cc1c(NC(=O)C2CCCCN2S(=O)(=O)c2ccc(Cl)cc2)c(=O)n(-c2ccccc2)n1C (stereo unspecified)	0.4
CCC(C)(C)NC(=O)C(c1ccc(F)cc1)N(Cc1ccco1)C(=O)CCC(=O)Nc1ccccn1 (stereo unspecified)	i
O=C(Nc1cccnc1)c1c(O)c2cccc3c2n(c1=O)CC3	0.8
O=C(Nc1cccc2nsnc12)c1ccc2c(c1)OCO2	i
COC(=O)c1ccc(C(=O)OC)c(NC(=O)CN2CCN(c3ccc(OC)cc3)CC2)c1	i
CC(C)CC(=O)Nc1ccc(S(=O)(=O)NCc2ccco2)cc1	i
Cc1ccc(NC(=O)CSc2nc3ccccc3c3nc(CCc4c(C)n[nH]c4C)nn23)cc1F	i
O=C(Cc1ccccc1)NCCc1cccc(Cl)c1	1.6

More structures follow.
SMILES	H5N1 antiviral
CCC(C)NS(=O)(=O)c1ccc(OCC(=O)Nc2ccc3c(c2)OCO3)cc1 (stereo unspecified)	i
CC(=O)c1nc2ccccc2n1S(=O)(=O)c1ccc(Cl)cc1	i
Cc1ccc(S(=O)(=O)c2c(N)n(/N=C/c3ccco3)c3nc4ccccc4nc23)cc1C	1.0
CC1=NCC(C)c2c1[nH]c1ccccc21 (stereo unspecified)	i
Cc1cccc(OCC(O)Cn2c(-n3nc(C)cc3C)nc3c2c(=O)[nH]c(=O)n3C)c1 (stereo unspecified)	i
Cc1ccc(N2CCN(S(=O)(=O)c3ccc(F)cc3)CC2)c(C)c1	1.1
O=C(CSc1nc2ccccc2o1)NCCOc1ccccc1	0.7
CCN(/C=N/c1sc2c(c1C#N)CC(C)(C)NC2(C)C)CC	0.3
CCN(CCNS(=O)(=O)c1ccc2[nH]c(=O)sc2c1)c1ccccc1	1.8
Cc1ccc(S(=O)(=O)CCc2nnc(N)s2)cc1	0.1
Cc1ccccc1OCC(=O)NCCN1CCCC1	1.1
CCOc1ccccc1Nc1nc(-c2sc(NC(=O)c3cccc(Cl)c3)nc2C)cs1	i
COc1cccc(NC(=O)N2CCCC(C(=O)Nc3ccccc3OC)C2)c1 (stereo unspecified)	i
O=C(OCC1COc2ccccc2O1)c1ccccc1F (stereo unspecified)	0.2
Cc1ccccc1OCCNC(=O)c1ccccc1Sc1ccccc1C#N	i
COc1ccc(OCCN2CCN(C3CC(=O)N(CCC(C)C)C3=O)CC2)cc1 (stereo unspecified)	0.5
Cc1c(C#N)c2ncnc(-c3ccccc3)c2n1-c1ccccc1	1.7
CCN(C(=O)COC(=O)c1[nH]c(C)c(C(C)=O)c1C)C1CCS(=O)(=O)C1 (stereo unspecified)	0.1
COC(=O)c1ccc(NC(=O)CCn2c(=O)oc3ccccc32)cc1	0.1
CCC(=O)Nc1ccc(Br)c(Cl)c1	i
CC(C)OCC(O)CN1CCNCC1 (stereo unspecified)	1.3
CCCCN(CC)C(=O)Cc1cn(C)c2ccccc12	0.2
COc1ccc(C(=O)CSc2nnc(CCc3ccccc3)n2-c2ccccc2)cc1	0.3
Cn1nc(-c2ccccc2)c(CSc2ccccc2)c1Cl	i
CCOC(=O)C(NC(=O)c1ccc(F)cc1)(Nc1nnc(C)s1)C(F)(F)F (stereo unspecified)	i

Later entries
SMILES	H5N1 antiviral
Cc1ccc(C(C)C)c(OCC(=O)Nc2ccc(N3CCN(S(C)(=O)=O)CC3)cc2)c1	i
CCOC(=O)CSc1ccc2nnc(-c3ccccc3)n2n1	i
O=C(NCc1ccccn1)C1CCN(S(=O)(=O)c2cnc[nH]2)CC1	i
c1ccc(-c2nnc3sc(-c4cc5ccccc5o4)nn23)cc1	0.8
COc1ccc(OC)c(S(=O)(=O)Nc2ccc(Oc3ccccc3)cc2)c1	2.4
NC(=O)CSc1nnc(-c2ccncc2)n1CCc1ccccc1	0.6
O=C(Nc1ccc2c(c1)OCCO2)C1CCCN1S(=O)(=O)c1ccc(Cl)cc1 (stereo unspecified)	i
Cc1ccc(Cn2nnc3c(=O)n(CC(=O)N4CCN(c5ccccc5)CC4)cnc32)cc1	0.3
CC(=O)c1c(C)[nH]c(C(=O)OCC(=O)Nc2ncc(Cl)c(C)c2Cl)c1C	0.5
COc1cc2cc(CN(CCN3CCCC3)C(=O)Nc3ccc(F)cc3)c(=O)[nH]c2cc1OC	i
Oc1ccc(-c2onc3ccc(Cl)cc23)cc1	i
COc1cc(C2C(C#N)=C(N)OC3=C2C(=O)CCC3)cc(OC)c1OC(=O)N1CCOCC1 (stereo unspecified)	i
Cc1cc(C)n(CCCO)c(=O)c1C#N	0.5
CN(C)c1ccc(C=Nc2ccccc2C(N)=O)cc1	i
N#Cc1c(NC(=O)COC(=O)c2ccc(F)cc2)sc2c1CCC2	0.3
Cc1cccc(NC(=O)c2ccoc2C)n1	i
CCCC(=O)Nc1ccc(C(=O)NCC2CCCO2)cc1 (stereo unspecified)	i
Cc1ccc2nc(SCc3nc4c(cnn4-c4ccccc4)c(=O)[nH]3)[nH]c2c1	7.2
COc1ccc(/C(N)=N/OC(=O)Cc2ccccc2OC)cc1	1.3
CCc1ccc(/C(C)=N/Nc2cc(Cl)nc(C)n2)cc1	0.1
N#CCN1CCN(CCC(=O)Nc2ccc(OCc3ccccc3)cc2)CC1	i
O=C(OCC(=O)c1cccs1)C1=COCCO1	0.0
Cc1ccc(C)c(-c2cc(C(=O)Nc3nccs3)c3ccccc3n2)c1	i
CC1C=Cc2ccccc2N1C(=O)c1ccccc1 (stereo unspecified)	0.7
O=C(NCCC1=CCCCC1)c1ccc(Cl)c(S(=O)(=O)N2CCOCC2)c1	0.9

(continued)
SMILES	H5N1 antiviral
CCCc1nc(NC(C)=O)c(C#N)c(-c2ccco2)c1CC	1.6
CCC(=O)c1c[nH]c(C(=O)NCC2CCCO2)c1 (stereo unspecified)	0.1
COc1cc(/C=C(\C#N)c2[nH]nc(N)c2C#N)cc(OC)c1O	0.6
O=C(c1cccs1)n1cc(C(=S)N2CCOCC2)c2ccccc21	i
O=C(Nc1cccc(S(=O)(=O)N2CCOCC2)c1)c1ccco1	0.4
COc1ccc(NC(=S)Nc2ccc(Oc3ccccc3)cc2)cc1	i
COc1ccc(OCc2nnc(SCC(=O)NCc3ccco3)o2)cc1	0.3
CC(C)CNc1nc(Oc2ccc(=O)n(-c3ccccc3)n2)nc(N2CCOCC2)n1	i
Cc1ccc(-c2nc(CS(=O)CC(=O)NCCC(C)C)c(C)o2)cc1 (stereo unspecified)	i
Cn1cc(-c2nnnn2-c2ccc(Cl)cc2)c(=O)c2ccccc21	0.7
O=c1[nH]c(O)c(/C=C2\C=NN=C2c2ccccc2)c(=O)[nH]1	i
CC(C)(C)OC(=O)N[C@@H](Cc1ccccc1)c1nnc(S(=O)(=O)Cc2cccc(F)c2)o1	7.2
Cc1ccc(C23CC4CC(CC(NC(=O)N5CCN(C)CC5)(C4)C2)C3)cc1	i
COC(=O)c1[nH]c2cccc(OC)c2c1NC(=O)CCN1CCN(c2cccc(Cl)c2)CC1	i
COc1ccc(CNC(=O)C23CN(Cc4ccccc4)CC2C(c2ccc([N+](=O)[O-])cc2)=NO3)cc1 (stereo unspecified)	i
Cc1cccc(-c2nnc(SCC#N)n2-c2cccc(Cl)c2)c1	3.0
Cc1ccc(S(=O)(=O)N/N=C/c2ccc(OS(=O)(=O)c3ccc(C)c([N+](=O)[O-])c3)cc2)cc1	i
CC(C)Oc1ccc(NC(=O)Oc2ccccc2)cc1	0.3
COc1ccc(C2CCCN2C(=O)Nc2ccc(Cl)cc2)cc1OC (stereo unspecified)	i
CCCN(C(=O)Cc1nc(N)n[nH]1)C1(C(=O)Nc2ccccc2C)CCCCC1	0.3
CCOC(=O)N1CCN(C(=O)CSc2nc3c(cnn3-c3ccccc3)c(=O)[nH]2)CC1	2.8
Cc1ccc2cccc(S(=O)(=O)NC3CCS(=O)(=O)C3)c2n1 (stereo unspecified)	3.8
COc1ccc(C(=S)N2CCCC2)cc1C	i
COc1ccc(CC(=O)O/N=C(\N)Cc2ccc(OC)cc2)cc1	0.1
COc1ccccc1N1CCN(S(=O)(=O)c2ccc(F)cc2)CC1	0.8

(listing goes on)
SMILES	H5N1 antiviral
COc1ccc(C(c2nnnn2Cc2cccs2)N2CCC(C(N)=O)CC2)c(OC)c1 (stereo unspecified)	2.0
Cc1ccc(C2CC(c3cccc(Br)c3)Nc3nnnn32)cc1 (stereo unspecified)	i
CC1CCCC(C)N1C(=O)CSc1nnc(NC(=O)c2cccs2)s1 (stereo unspecified)	0.3
Cn1c(CNc2nc(-c3ccccc3)cs2)nnc1SCC(=O)c1ccccc1	i
COc1cc(OC)cc(C(=O)N2CCN(Cc3cccc(F)c3)CC2)c1	i
CC(=O)Nc1cccc(NC(=O)C2CC(=O)N(c3ccc(C)cc3)C2)c1 (stereo unspecified)	i
O=C(NCc1ccco1)c1ccc(S(=O)(=O)N2CCOCC2)cc1	2.5
CC(=O)/C(=N/Nc1cccc(C)c1)N1CCOCC1	i
COc1ccc(NC(=O)C2CCCN(C(=O)NC3CCCCC3)C2)cc1OC (stereo unspecified)	i
CCCCn1nnnc1SCC(=O)NNC(=O)C1CCCCC1	0.3
CN1CCCC(OC(=O)c2cc(Cl)ccc2Cl)C1 (stereo unspecified)	i
COc1ccc(C(=O)/C=C(\C)Nc2ccc3c(c2)OCO3)cc1	2.3
CCN(CC)S(=O)(=O)c1cccc(C(=O)N2CC(O)CC2C(=O)O)c1 (stereo unspecified)	0.2
COC(=O)c1ccc(C(=O)OC)c(NC(=O)COC(=O)CC2CC3CCC2C3)c1 (stereo unspecified)	2.3
CCOc1ccc2cc(S(=O)(=O)n3ccnc3C)ccc2c1	i
CS(=O)(=O)Nc1ccccc1C(=O)NCc1ccco1	1.3
CCCOc1cccc(/C=N/NC(=O)c2csc(C)c2C)c1	i
O=C(Nc1ccc(F)cc1)c1sccc1SCc1cccc(C(F)(F)F)c1	i
COc1ccc(S(=O)(=O)N2CCCC(C(=O)O)C2)cc1Cl (stereo unspecified)	0.9
CC(C)(C)NC(=O)NC(=O)COC(=O)COc1ccc2c(c1)CCC2	0.2
Cn1c(CN2CCOCC2)nnc1SCC(=O)NCCc1ccccc1	1.3
COc1ccc(OC)c(NC(=O)C2C3C=CC(C3)C2C(=O)NCc2ccccn2)c1 (stereo unspecified)	0.3
CCOc1cc(-c2nc(-c3ccc(C)nc3OC)no2)cc(OCC)c1OCC	i
COc1ccc(C(=O)Nc2cccc(C)c2)cc1	i
CCc1ccc2[nH]c(=O)c(CN(Cc3ccccc3)Cc3nnnn3Cc3ccco3)cc2c1	i

Remaining list, next part.
SMILES	H5N1 antiviral
CC(=O)Oc1ccc(C(=O)Nc2nnc(C)s2)cc1	7.4
Cc1oc(C(=O)O)cc1COc1ccc2c3c(c(=O)oc2c1C)CCC3	1.3
Oc1oc(-c2ccco2)nc1C=Nc1ccccc1	0.1
CC(=O)Nc1cc(-c2nn3c(C)nnc3s2)ccc1C	1.6
O=C(NCc1ccc(F)cc1)C1CCCN(C(=O)Nc2ccccc2)C1 (stereo unspecified)	i
CCCCCCNC(=O)Cc1c(O)c2ccccc2[nH]c1=O	0.1
COCCN(CCOC)Cc1c(C)[nH]c2ccccc2c1=O	0.7
CCOC(=O)C1=C(C)NC(=O)NC1c1ccc(Cl)cc1Cl (stereo unspecified)	i
Cc1cc(C)n(-c2nc(NCC(C)O)c3c4c(sc3n2)CCCC4)n1 (stereo unspecified)	9.7

High-throughput results: PubChem, SRMLSC
